Calb biofilm kill = clotrimazole potentiators killing C. albicans biofilm, primary screen, 4-compound mixtures | C. albicans biofilm persisters + clotrimazole, fluorescence viability; primary screen in compound mixtures of four per well | inhibition, % at 7.6 µM | 120,000 compounds, 0.02% hits | AID 1242, 2008;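 active means inhibition above 30.3% in the primary screen of four-compound pools, then above 30% when the compound was retested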;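 further: compounds exposed to preformed 24 h biofilms for 48 h; the number belongs to the whole pool; some results filed as inactive read as strong as hits; inactives centre near 12; 0% = biofilm with clotrimazole alone and 100% = kill control; retested singly at about 60 µM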
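Test system: C. albicans CAF4-2 wild-type biofilms; buffer or medium: RPMI/MOPS medium, pH 7.0; schedule: 24 h biofilm formation, then 48 h compound exposure, 37 °C; detection: Alamar Blue fluorescence; measure: percent inhibition of biofilm viability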
Numbers without * were called inactive. Only part of the results is shown; the hit share may differ from the screen's.

canonical_smiles	Calb biofilm kill
COC(=O)c1ccc(C2OCC(C)(C)CO2)cc1	1.8
CC1(C)CC(=O)C(N=Nc2ccc(Cl)cc2)=C(O)C1	15.5
COc1ccc(NC(=O)N2c3ccc(OC)cc3C(C)=CC2(C)C)cc1	8.2
Cc1ccc2oc(=O)c3cc(C(=O)NCCN4CCc5ccccc5C4)sc3c2c1	17.8
CCc1sc(N)nc1-c1ccccc1	14.1
Cc1nc(N2CCC(C)CC2)c2c(C)c(C(=O)Nc3ccccc3C(F)(F)F)sc2n1	2.7
COc1ccc(C)cc1NC(=O)Nc1ccccc1SC	-1.3
COC(C(=O)NNC(=O)CCc1ccccc1)c1ccccc1 (centres undefined)	9.0
O=C(COC(=O)c1ccc(F)cc1)Nc1ccc(Cl)cn1	11.4
O=C(COc1ccccc1C(=O)NCC1CCCO1)Nc1ccc(Br)cc1 (centres undefined)	15.6
Cc1ccccc1NC(=O)/C(C#N)=C/c1ccsc1	18.4
Nc1c(C(=O)NCCc2ccccc2)nnn1Cc1ccc(Cl)cc1	10.3
CCOC(=O)C(C)Sc1cnccn1 (centres undefined)	13.1
CNc1cc([N+](=O)[O-])ccc1N/C=C/C(=O)c1cccs1	9.5
Cc1ccc2[nH]c3c(=S)nc[nH]c3c2c1	0.6
CC(C)c1ccc(NC(=S)NNC(=O)c2cccnc2)cc1	9.8
CCOC(=S)SCc1cn2ccccc2n1	4.8
COc1ccc(S(=O)(=O)N2CCC(C(=O)N3CCC(C(N)=O)CC3)CC2)cc1Cl	14.4
O=C(O)c1cc(Cl)nc2ccccc12	13.2
O=C(CCNC(=O)c1ccco1)Nc1ccccc1N1CCOCC1	13.2

canonical_smiles	Calb biofilm kill
CNCc1cc(Br)c(OCC(=O)Nc2ccccc2OC)c(OC)c1	17.3
CCC(=O)Nc1ccc(C(=O)Nc2c[nH]c(=O)[nH]c2=O)cc1	21.5
Cc1cc(C)c(OCCOCCN(C)C)c(Br)c1	10.9
CC(=O)OCC1OC(OC(C)=O)C(NC(=O)c2cccnc2)C(OC(C)=O)C1OC(C)=O (centres undefined)	5.6
C/C(=C\c1ccc2c(c1)OCO2)C(=O)c1c(C)cc(C)[nH]c1=O	21.1
O=C(NNC(=O)c1ccccc1[N+](=O)[O-])c1ccccn1	30.6
Oc1c(C(Nc2cccc(C(F)(F)F)c2)c2ccncc2)ccc2cccnc12 (centres undefined)	8.2
CN(C)CCCN1C(=O)CSC1c1ccc([N+](=O)[O-])cc1 (centres undefined)	9.7
O=C(Nc1nnc(C2CC2)s1)C1COc2ccccc2O1 (centres undefined)	9.6
CC(=O)Nc1cccc(NC(=O)CS(=O)(=O)c2cn(CC(=O)N3CCOCC3)c3ccccc23)c1	9.6
O=C(CCl)Nc1cccc(S(=O)(=O)NC2=NCCC2)c1	18.3
O=C(COC(=O)c1cc(=O)c2ccccc2o1)NC1CCCC1	12.6
CC1CN(C(=O)c2cccc(S(=O)(=O)Nc3ccc(Cl)cc3)c2)CC(C)O1 (centres undefined)	6.3
CCN(CC)c1ccc(/C=N/NC(=O)c2cccc(S(=O)(=O)Nc3ccccc3OC)c2)cc1	21.9
Cc1ccc(NC(=O)CN(C)C(=O)COc2c(Cl)cc(Cl)c3ccc(C)nc23)cc1	11.4
Cn1ncc2c(NNC(=O)c3ccc(Cl)c(Cl)c3)ncnc21	13.7
COc1ccc(CC(=O)Nc2cccc(-c3cn4ccccc4n3)c2)cc1	9.6
O=C(NC(=S)NC1CCSC1=O)c1ccccc1F (centres undefined)	15.4
COc1ccc(CNC(=O)CN(C(=O)Cn2nnc(-c3ccccc3F)n2)c2ccc(C)cc2)cc1	11.6
CCN1N=C(C)C=C(c2ccccc2)n2c1nc1ccccc12	17.3

canonical_smiles	Calb biofilm kill
Cc1ccc2nc(SCc3ccccc3)c(C=O)c(=O)n2c1	6.2
O=C(NCCN1C(=O)S/C(=C\c2ccc(Cl)c(Cl)c2)C1=O)C1COc2ccccc2O1 (centres undefined)	15.5
CCOC(=O)c1c(NC(=O)CSc2nnc3ccccn23)sc2c1CCC2	14.2
O=C(COC(=O)CNC(=O)c1ccccc1)Nc1ccc(Cl)cc1C(F)(F)F	16.6
Cc1ccc(-n2[nH]c(C)c(C=Nc3ccc(S(=O)(=O)Nc4nccs4)cc3)c2=O)cc1	-5.7
O=C(COC(=O)c1ccco1)NC(c1ccccc1)c1ccccc1	17.7
COC(=O)c1cc(OC)c(OC)cc1NCC(=O)Nc1ccc(C)cc1	22.4
Cc1cc2nc(N=C(N)N)nc(C)c2cc1C	-7.5
CCn1cc([N+](=O)[O-])c(C(=O)Nc2ccn(C34CC5CC(CC(C5)C3)C4)n2)n1	8.1
Cc1cc(C)nc(N/N=C/C2=C(O)CC(c3ccccc3)CC2=O)n1 (centres undefined)	24.1
S=C(NCc1cccs1)Nc1ccc(Br)cc1Cl	7.5
O=C1CCN(CCc2ccccc2)CCN1[C@H](CSc1ccc(Br)cc1)c1ccccc1	12.6
COc1ccc(-n2c(-c3ccc(C)cc3)n[nH]c2=S)cc1	9.9
O=C(c1ccccc1)c1nn(-c2cccc(Cl)c2)ccc1=O	21.9
ClC1=C(Cl)C(Cl)=C(Cl)C1=C/C=C/c1ccccc1	13.8
Cc1cc(N2CC(C)OC(C)C2)nc(C(C)C)n1 (centres undefined)	20.1
CCCCCCNC(=O)c1ccc(Br)o1	6.5
Cc1nnc(SCC(=O)NC(=O)Nc2ccc3c(c2)OCCO3)s1	14.4
COc1ccc(C=O)cc1Oc1nc(Cl)ncc1F	-2.4
COc1ccc(NC(=O)c2c(NC(=O)CCC(=O)O)sc(-c3ccccc3)c2C)cc1	12.9

4 entries from above, set out differently.
> Cc1ccc2nc(SCc3ccccc3)c(C=O)c(=O)n2c1
  Calb biofilm kill: 6.2
> O=C(NCCN1C(=O)S/C(=C\c2ccc(Cl)c(Cl)c2)C1=O)C1COc2ccccc2O1 (centres undefined)
  Calb biofilm kill: 15.5
> CCOC(=O)c1c(NC(=O)CSc2nnc3ccccn23)sc2c1CCC2
  Calb biofilm kill: 14.2
> O=C(COC(=O)CNC(=O)c1ccccc1)Nc1ccc(Cl)cc1C(F)(F)F
  Calb biofilm kill: 16.6

(listing goes on)
canonical_smiles	Calb biofilm kill
CC(=O)Nc1ccc(Nc2nnc(-c3ccc(C)c(S(=O)(=O)NCC4CCCO4)c3)c3ccccc23)cc1 (centres undefined)	17.4
O=C(c1ccc([N+](=O)[O-])cc1)N1CCN=C1SCc1ccccc1	-3.2
Cn1ncc2c(Nc3ccccc3Cl)nc(Nc3ccccc3Cl)nc21	5.2
CC(C)[C@H](NS(=O)(=O)c1ccccc1)C(=O)OCC(=O)N1N=C(c2ccc(Cl)cc2)CC1c1ccco1 (some centres undefined)	10.6
Cc1cccc(CNCc2ccccc2)c1	14.0
O=C(O)Cc1c(-c2ccccc2Cl)c2cc(Br)ccc2[nH]c1=O	11.4
O=C(CC(Nc1ccc(Cl)cc1)C(=O)O)c1ccccc1 (centres undefined)	17.3
CCN(CC)C(=O)c1ccccc1NC(=O)c1ccccc1C	19.2
Cc1ccc(NC(=O)C[n+]2cc(-c3ccc(C)cc3)n3c2CCC3)cc1	10.5
CCCCCCSc1nnc2[nH]c(=O)cc(N)n12	16.8
CCOc1ccc(OCC)c(S(=O)(=O)NCc2cccnc2)c1	9.5
COc1ccc(NC(=O)C2CCCN(S(=O)(=O)c3cccc4nonc34)C2)c(OC)c1 (centres undefined)	-1.8
COCCCNC(=S)NCCNc1nc2cc(C)c(C)cc2cc1C#N	3.5
Cc1cc(=O)oc2cc(NC(=O)CC3(CC(=O)O)CCCC3)ccc12	19.6
N#C/C(=C\c1ccc(OCC(N)=O)cc1)S(=O)(=O)c1ccccc1	6.1
Cc1cc(C)c(S(C)(=O)=O)c(N(C)N)n1	23.5
CCOC(=O)C1=NN(C(=O)c2ccc(OC)cc2)C(O)(c2ccc(Cl)cc2)C1 (centres undefined)	8.1
N#CCCNC(=O)Cn1c(COc2ccc(Cl)cc2)nc2ccccc21	-4.4
O=C(/C=C/c1ccccc1Cl)N(Cc1ccc(Cl)cc1)C1CCS(=O)(=O)C1 (centres undefined)	8.6
COc1ccc2nc(COC(=O)c3cccs3)c(C(C)=O)[n+]([O-])c2c1	-4.4

canonical_smiles	Calb biofilm kill
COc1ccc(C(=O)Nc2c(-c3cccs3)c(=O)c3ccccc3n2C)cc1	23.2
CC(=O)Nc1ccc(S(=O)(=O)Nc2ccc(F)c([N+](=O)[O-])c2)cc1	18.1
CC(=O)Nc1ccc(Nc2c3c4c(cccc4n(C)c2=O)C(=O)c2ccccc2-3)cc1	5.6
CCn1c(SCC(=O)Nc2ccc(C(C)=O)cc2)nc2nc3c(cc2c1=O)COC(C)(C)C3	14.7
CCOC(=O)c1sc(NC(=O)CSc2nc3c(c(=O)n2-c2ccccc2)SCC3)c(C(=O)OCC)c1C	18.1
CCOC(=O)C=C(C(=O)OCC)C(=O)OCC	11.4
O=C(COc1cccc2ccccc12)N/N=C/c1ccccc1OCc1ccc(C(=O)O)cc1	16.2
O=S(=O)(c1ccccc1)N1CC=C(c2ccccc2)CC1	26.8
O=C(Nc1ccc(S(=O)(=O)N2CCOCC2)cc1)c1ccc2c(c1)OCO2	22.5
O=c1cc[nH]c2ccc(OC(F)(F)F)cc12	23.5
CCOC(=O)Cc1csc(/N=C/c2c(O)n(-c3ccccc3C(F)(F)F)c(=O)c3ccccc23)n1	14.3
FC(F)(F)c1cccc(OCC2CNC(=S)O2)c1 (centres undefined)	18.1
C/C(=N\OCC(=O)Nn1c(=O)[nH]c2ccccc2c1=O)c1ccccc1	16.3
CCOc1ccc(C(=O)CSCCC(=O)O)cc1	3.9
C=CCN(C)CCCNC(=O)/C=N/O	8.8
Cc1cccc(NC(=S)NCCc2c[nH]c3ccccc23)c1	15.6
O=C(/C=C/c1cnc2ccccc2n1)NC1CCCCCC1	13.1
Cc1cccc(C2c3[nH]c4ccccc4c3CCN2C(=O)CN2CCOC2=O)n1 (centres undefined)	10.4
O=C(Cc1ccc(Cl)cc1)c1c[nH]c(C(=O)NCCCn2ccnc2)c1	6.4
O=C(c1nc2ccccn2c1CN1CCCC(OCc2ccccc2)C1)N1CCCC1 (centres undefined)	24.9

canonical_smiles	Calb biofilm kill
COc1cc(NC(=O)Cn2ccsc2=N)cc(OC)c1	17.4
O=C1COc2ccc(C(=O)COC(=O)c3ccco3)cc2N1	12.6
Fc1ccc(/C=N/Nc2nnnn2-c2ccccc2)cc1	4.5
COc1ccc(/C=N/OCC(=O)NC(c2ccccc2)c2ccccc2)cc1OC	5.1
O=C(Nc1nc(-c2ccc(F)c(F)c2)cs1)c1cc([N+](=O)[O-])ccc1N1CCOCC1	14.0
NCCNC(=O)Cc1cccc(NC(=O)Cc2ccc(Nc3ncnc4c3ncn4[C@@H]3O[C@H](CO)[C@@H](O)[C@H]3O)cc2)c1	16.3
C/C(=C\c1ccccc1)C(=O)Nc1nc2ccc([N+](=O)[O-])cc2s1	9.4
NC(=O)c1ccsc1NC(=O)c1ccc(N2CCCC2=O)cc1	9.0
CCc1ccc(Oc2nnnn2-c2ccc(C(N)=O)cc2)cc1	8.1
COc1ccccc1-c1n[nH]c(=S)n1N	10.2
COc1ccc(OC)c(C(=O)NC(CC(N)=O)c2ccc(NCCN3CCOCC3)c([N+](=O)[O-])c2)c1 (centres undefined)	11.2
O=C(O)/C=C/C(=O)N1Cc2cc3ccccc3nc2C1	14.6
CCOC(=O)N1CCC(=NNC(=O)c2ccccc2F)CC1	18.3
Cc1ccc(NC(=O)c2ccccc2OCC(=O)c2ccc(F)cc2)cc1	13.5
Nc1nc(CSc2ccc(Cl)cc2)nc(N2CCCCC2)n1	21.8
O=C(N/N=C(\CC(=O)c1cccs1)C(F)(F)F)c1cccnc1	4.4
Cc1onc(-c2ccccc2)c1C(=O)Nc1ccc(S(=O)(=O)N2CCCC2)cc1	7.5
CCC(C)c1ccc(NC(=O)C2CCN(c3ncccn3)CC2)cc1 (centres undefined)	10.6
CCC(CC)NC(=O)CON=C1c2ccccc2-c2ccccc21	3.1
Cn1c(=O)c2c(nc(NN=C3CCCCC3)n2C)n(C)c1=O	18.6

canonical_smiles	Calb biofilm kill
CCOC(=O)CN1C(=O)S/C(=C/c2cccc([N+](=O)[O-])c2O)C1=O	23.5
Cc1ccc(N/C=C/C(=O)c2cccs2)cc1C	5.5
CCOC(=O)c1sc(=NC(=O)c2ccc(C)c(C)c2)n(C)c1C	1.8
O=C1CN(C(=O)c2ccc(Cl)c(S(=O)(=O)N3CCc4ccccc43)c2)c2ccccc2N1	9.3
O=C(c1ccccc1)N1CCN(Cc2cccc(Oc3ccccc3)c2)CC1	12.4
COc1cc2c(cc1OC)CN(c1ccc([N+](=O)[O-])cc1Cl)CC2	8.7
CC12COC3(C(=O)Nc4ccc(F)cc4)CC1CCC32C (centres undefined)	12.8
CCN(c1ccccc1)S(=O)(=O)c1ccc(Cl)c(C(=O)OCC(=O)c2[nH]c(C)c(C(C)=O)c2C)c1	15.2
O=C(NC1(O)C(=O)c2ccccc2C1=O)c1ccc(C(F)(F)F)cc1	14.4
COCCNC(=S)N1CCc2cc(OC)c(OC)cc2C1COc1ccc(F)cc1 (centres undefined)	13.5
CC/C(=N\NC(=O)c1c(-c2ccccc2)noc1C)c1ccc(C)o1	3.7
O=C(Cn1nc(-c2ccc(Cl)cc2)c2ccccc2c1=O)NN1CCOCC1	8.4
COc1ccc(CNC(=O)C(C)N2C(=O)COc3ccc(C)cc32)c(OC)c1 (centres undefined)	19.7
Cn1cnnc1SCCC(=O)Nc1ccc(Cl)cc1	16.7

Screens as filed in PubChem BioAssay.
